# Assay outcomes as filed in PubChem.
# GIRK2 act: opens human GIRK2 potassium channels; AID 1259325; HEK293-GIRK2 thallium flux, Thallos fluorescence; P48051; 63,000 tested, 0.05% active; calls only for hits at 25 µM;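 active = among the strongest 0.2% of first-round signals and kept after retests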;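 note: first round at about 10 µM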
# Target sequence (P48051 whole entry, looked up): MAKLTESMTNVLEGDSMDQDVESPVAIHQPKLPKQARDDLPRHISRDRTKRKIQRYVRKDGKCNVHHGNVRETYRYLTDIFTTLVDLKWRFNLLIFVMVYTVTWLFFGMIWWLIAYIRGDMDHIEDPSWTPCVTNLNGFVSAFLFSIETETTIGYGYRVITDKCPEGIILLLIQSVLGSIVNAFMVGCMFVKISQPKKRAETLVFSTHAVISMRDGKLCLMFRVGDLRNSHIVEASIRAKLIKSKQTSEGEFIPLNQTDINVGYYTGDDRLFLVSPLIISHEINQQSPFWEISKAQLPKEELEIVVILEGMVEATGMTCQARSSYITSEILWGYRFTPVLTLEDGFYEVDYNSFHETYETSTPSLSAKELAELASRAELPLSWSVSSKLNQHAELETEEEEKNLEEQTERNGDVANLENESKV
# Calls only; i = inactive. The list is partial. The share of hits here may be higher or lower than overall.
item	SMILES	GIRK2 act
1	Cc1ccc2[nH]c3c(=O)n(CC(=O)N4CCN(c5ccccc5Cl)CC4)cnc3c2c1	i
2	O=C(NCc1ccccc1F)C1CCN(c2ncccc2-c2nc(-c3ccccc3)no2)CC1	i
3	Cc1cccc(C(=O)Nc2c(C(=O)N3CCN(c4ccccc4)CC3)[nH]c3ccccc23)c1	i
4	Cc1ccc2oc(C(=O)Nc3ccc([N+](=O)[O-])cc3)c(C)c2c1	i
5	COc1ccc(C2CCN(C(=O)c3ccccc3SC)C2)cc1 (centres undefined)	i
6	COc1ccc(N2CC(c3nc(-c4ccc5c(c4)OCO5)no3)CC2=O)cc1 (centres undefined)	i
7	Cc1cc(NC(=O)c2ccc([N+](=O)[O-])cc2)n(-c2nc(-c3ccc(F)cc3)cs2)n1	i
8	CCOC(=O)N1CCC(NC(=O)c2sc3ncccc3c2-n2cccc2)CC1	i
9	CC(C)(N)c1nc2ccccc2[nH]1	i
10	COc1ccc(NC(=O)Nc2cc(N3CCN(C)CC3)ncn2)cc1	i
11	Cc1cc(NC(=O)C(c2ccccc2)n2cccc2)no1 (centres undefined)	i
12	Cc1ccc(C(=O)NC2CCN(c3ncccc3-c3nc(C)no3)CC2)cn1	i
13	CCN1CCCc2cc(CCNC(=O)C(=O)Nc3c(C)cc(C)cc3C)ccc21	i
14	O=C(Nc1ccc(Oc2ccccc2)cc1)c1nnn(-c2ccc(Cl)cc2)n1	i
15	NC(=O)c1ccccc1OCC#CCNC(=O)C1CC(=O)N(c2ccc(Cl)cc2)C1 (centres undefined)	i
16	O=C(CN1CC(c2nc(-c3cccnc3)no2)C1)N1CCN(c2ccc(Cl)cc2)CC1	i
17	COc1cccc(-c2noc(CSc3nc4ccccc4c(=O)n3Cc3cccs3)n2)c1OC	i
18	COc1ccc(NC(=O)Cn2cnc3c(-c4ccc(C)cc4)nsc3c2=O)cc1	i
19	O=C(COc1ccc(Cl)cc1)N1CCN(c2cc(-n3cccc3)ncn2)CC1	i
20	Cc1noc(CNC(=O)c2cc(-c3ccccc3)n[nH]2)n1	i
21	CCOc1ccc(NC(=O)/C=C/c2cccc(C(F)(F)F)c2)cc1	i
22	CC(=O)N1CCC(C(=O)c2ccc(F)cc2F)CC1	i
23	COc1cc(OC)c(NC(=O)Cn2nc3c(Oc4ccc(C)cc4)nccn3c2=O)cc1Cl	i
24	O=C(Nc1ccc2c(c1)OCCO2)c1n[nH]nc1Nc1ccc(Cl)cc1	i
25	O=S(=O)(NCc1ccco1)c1ccc(-c2ccc(Cl)cc2)cc1	i
26	COc1ccc2sc(OC3CCN(C(=O)c4cnn(-c5ccccc5)n4)CC3)nc2c1	i
27	Cc1ccc(F)cc1NC(=O)Cn1nc2c3ccc(Cl)cc3ncn2c1=O	i
28	O=C(Nc1cccc2ccccc12)c1ccco1	i
29	Cc1nc(SCC(=O)Nc2cc(Cl)ccc2Cl)cc(-c2ccccn2)n1	i
30	CC(C)NC(=O)NCCn1nc(C(F)(F)F)n(C)c1=O	i
31	Cn1c(-c2ccccn2)nn(CCNC(=O)C2(c3cccs3)CCCC2)c1=O	i
32	COc1ccccc1CNC(=O)CN(C)c1nc2c(C(F)(F)F)cccc2s1	i
33	COCCn1c(SCc2nc(-c3ccccc3Cl)no2)nc2ccsc2c1=O	i
34	O=c1[nH]cnc2c1ncn2[C@H]1CC[C@@H](CO)O1	i
35	CCOc1ccc(-c2noc(-c3sccc3S(=O)(=O)N(C)c3ccc4c(c3)OCO4)n2)cc1	i
36	COc1ccc(NC(=O)NCCN2CCN(c3ccc(F)cc3)CC2)c(OC)c1	i
37	COC(=O)CN(c1ccc(C(C)C)cc1)S(=O)(=O)c1cccn2c(C)nnc12	i
38	Cc1ccc(N2C(=O)C3N=NN(Cc4nc(-c5ccc6c(c5)OCO6)no4)C3C2=O)cc1F (centres undefined)	i
39	Cc1noc(CNC(=O)c2ccc(Br)cc2)n1	i
40	CC(C)(C)OC(=O)Cn1cc(S(=O)(=O)N2CCCCC2)ccc1=O	i
41	Cc1ccc(Cn2c(=O)c3c(nc4n(CC(C)C)c(C)cn34)n(C)c2=O)cc1	i
42	O=S(=O)(c1ccccc1)C1CC2CCC(C1)N2S(=O)(=O)c1cccs1 (centres undefined)	i
43	COC(=O)C(C)Oc1ccc2c(c1)O/C(=C\c1cccc(Br)c1)C2=O (centres undefined)	i
44	Cc1nc(C)c(C(=O)N2CCN(Cc3csc(-c4ccccc4)n3)CC2)s1	i
45	CS(=O)(=O)N1CCc2nc(NC(=O)c3ccc4nsnc4c3)sc2C1	i
46	COc1cccc(C(=O)N2CCOCC2CN(C)C)c1 (centres undefined)	i
47	COc1ccc(S(=O)(=O)NCC2(c3ccccc3)CCOCC2)cc1	i
48	CCCNS(=O)(=O)c1cc(C)c(OC)cc1C	i
49	COc1ccccc1-c1noc(C2CN(C(=O)NCc3cccs3)C2)n1	i
50	COc1ccccc1NC(=O)N1CCC2(CC1)NC(=O)c1ccc(Cl)cc1N2C	i
51	O=C(Cn1cnc2c(c1=O)CN(Cc1ccccc1)CC2)Nc1ccc2c(c1)OCO2	i
52	COc1ccccc1NS(=O)(=O)c1ccc(CN2C(=O)c3ccccc3C2=O)cc1	i
53	Cc1noc(C)c1CC(=O)NCCn1nc(-c2ccco2)ccc1=O	i
54	O=C(c1ccc2nc[nH]c2c1)N1CCN(CCn2ccnc2-c2ccccc2)CC1	i
55	COc1cccc(C(O)CN2CCN(c3ccccn3)CC2)c1 (centres undefined)	i
56	O=C(COc1ccccc1)N1CC(c2nc(-c3cccs3)no2)C1	i
57	COc1ccccc1N1CCN(C(=O)CCCn2c(=S)[nH]c3cc4c(cc3c2=O)OCO4)CC1	i
58	COc1ccc(-c2ccc(=O)n(CCNS(=O)(=O)c3ccc(C(F)(F)F)cc3)n2)cc1	i
59	O=C(O)c1ccc2c(=O)nc3c(-c4cccc(F)c4)n[nH]n3c2c1	i
60	O=C(NCCc1ccccc1)N1CCC(CSc2ccccn2)CC1	i

# Further records:
item	SMILES	GIRK2 act
61	CSc1ccc(NC(=O)C(C)(C)C)nn1	i
62	COc1ccc(C)cc1NC(=O)Cn1cccc(S(=O)(=O)N2CCCCCC2)c1=O	i
63	COc1ccc(Cl)cc1Nc1nn2c(=O)c3cc(OC)c(OC)cc3nc2s1	i
64	O=S(=O)(Cc1ccc(-c2nc(-c3ccc(Br)cc3)no2)o1)Cc1ccccc1F	i
65	O=C1C(=O)N(CCCn2ccnc2)C(c2cccnc2)C1=C(O)c1ccc2c(c1)OCO2 (centres undefined)	i
66	Cc1c(Cl)cccc1S(=O)(=O)N1CCC(Oc2ccccn2)CC1	i
67	Cc1cc(=O)n(CCNC(=O)COc2cccc(Cl)c2)cn1	i
68	CCOC(=O)CN1CCC(c2nn(C)c(=O)n2-c2ccccc2)CC1	i
69	CC(=O)Cn1c(=O)c2c(nc3n2CCCN3c2ccc(C)c(Cl)c2)n(C)c1=O	i
70	COc1ccccc1NC(=O)Cn1c(-c2ccc(C)cc2)nc2c(c1=O)CCN(Cc1ccccc1)C2	i
71	CCN(CC)CCCN1C(=O)C(O)=C(C(=O)c2sc(C)nc2C)C1c1cccs1 (centres undefined)	i
72	O=C(Cc1ccc(Cl)cc1)N1CCc2cc(S(=O)(=O)N3CCOCC3)ccc21	i

# Pulled one by one from the list above, 6 records:
item	SMILES	GIRK2 act
5	COc1ccc(C2CCN(C(=O)c3ccccc3SC)C2)cc1 (centres undefined)	i
37	COC(=O)CN(c1ccc(C(C)C)cc1)S(=O)(=O)c1cccn2c(C)nnc12	i
32	COc1ccccc1CNC(=O)CN(C)c1nc2c(C(F)(F)F)cccc2s1	i
24	O=C(Nc1ccc2c(c1)OCCO2)c1n[nH]nc1Nc1ccc(Cl)cc1	i
26	COc1ccc2sc(OC3CCN(C(=O)c4cnn(-c5ccccc5)n4)CC3)nc2c1	i
65	O=C1C(=O)N(CCCn2ccnc2)C(c2cccnc2)C1=C(O)c1ccc2c(c1)OCO2 (centres undefined)	i

# Reformatted as labelled records: part of the list above.
67) Cc1cc(=O)n(CCNC(=O)COc2cccc(Cl)c2)cn1
  GIRK2 act: i
68) CCOC(=O)CN1CCC(c2nn(C)c(=O)n2-c2ccccc2)CC1
  GIRK2 act: i
69) CC(=O)Cn1c(=O)c2c(nc3n2CCCN3c2ccc(C)c(Cl)c2)n(C)c1=O
  GIRK2 act: i

# Further entries follow:
item	SMILES	GIRK2 act
73	COc1ccc(C2(CNC(=O)Cc3cn(C)c4ccccc34)CCCC2)cc1	i
74	O=[N+]([O-])c1cccc2c(Br)[nH]nc12	i
75	CCCCCCCC/C=C\CCCCCCCC(=O)NCCO	i
76	COc1ccc(OC)c(-c2cc(C(=O)NCC3(CO)CC3)n(C)n2)c1	i
77	COc1cc(Cl)c(C)cc1NC(=O)Cn1ncc2c(c1=O)N(C)C(=O)CS2	i
78	O=c1cc(-c2ccccc2)oc2cc(Cl)ccc12	i
79	Cc1ccc(NC(=O)C2CCCC2)cc1N1CCCC1=O	i
80	CCCCCn1c(SCC(=O)C(C)(C)C)nc2cc(C(=O)N3CCN(C)CC3)ccc2c1=O	i
81	O=C(NCC(F)(F)F)C(=O)NCC1(O)CCCC1	i
82	COc1ccc(-c2cc3c(SCC(=O)NCCc4ccccc4)nccn3n2)cc1	i
83	CC(=O)Nc1ccc(C(=O)N2CCN(C(=O)C3CC3c3cccs3)CC2)cc1 (centres undefined)	i
84	O=C(NCC1(c2ccccc2)CCOCC1)c1ccc2nsnc2c1	i
85	O=c1ccc(S(=O)(=O)N2CCCC2)cn1Cc1ccc(Cl)cc1	i
86	O=C(Nc1ccc2c(c1)OCO2)c1nnn(-c2ccc(Cl)cc2)n1	i
87	COc1ccc(NC(=O)NCCOc2ccccc2)c(OC)c1	i
88	CCc1nnc(NC(=O)C2=Cc3cc(OC)ccc3OC=C2)s1	i
89	Cn1cc(C(=O)N2CCCC(c3nnc(-c4ccccc4F)s3)C2)nn1 (centres undefined)	i
90	CCOC(=O)Nc1nc(CC(=O)Nc2ncc(C)s2)cs1	i
91	Cc1ccccc1Cn1c(C2CC(=O)N(Cc3ccc(F)cc3)C2)nc2ccccc21 (centres undefined)	i
92	Cc1nc(-c2ccc(N3CCN(C(=O)c4cnn(-c5ccccc5)n4)CC3)nc2)no1	i
93	CCN1C(=O)c2cccc3c(NC(=O)CCCSc4ccc(F)cc4)ccc1c23	i
94	COc1ccc(CNC(=O)Nc2nc3cc4c(cc3s2)OCO4)cc1OC	i
95	COc1ccc(-n2nnc(C(=O)N3CCN(C(=O)c4ccco4)CC3)n2)cc1	i
96	COc1ccc(S(=O)(=O)NCCC(=O)N(C)C)cc1N(C)S(=O)(=O)c1ccccc1	i
97	COc1ccc(-c2nc3c(c(=O)c4ccccc4n3C)c(=O)n2CC(C)C)cc1	i
98	O=C(Nc1nc(C(=O)Nc2ccc3c(c2)OCCO3)co1)c1ccccc1	i
99	COc1ccc2c(c1)c(CC(=O)NCc1ccc(C)cc1)c(C)n2C(=O)c1ccc(Cl)cc1	i
100	COCCn1c(-n2nc(C)c(C)c2C)nc2c1c(=O)n(C)c(=O)n2C	i
101	Cc1ncn(CC(=O)Nc2ccc(Cl)cc2C(F)(F)F)c(=O)c1C	i
102	COc1ccc(C(=O)NCC2CCN(C(=O)c3ccncc3)CC2)cc1OC	i
103	CSc1ncccc1C(=O)NCC1CCN(c2ccccn2)CC1	i
104	COc1ccc(NC(=O)c2nnn(Cc3nc(-c4ccc(OC)cc4OC)oc3C)c2N)c(OC)c1	i
105	Nc1ccc(S(=O)(=O)NCCCCCC(=O)O)cc1	i
106	Cc1ccc(-c2nnc(NC(=O)c3ccc(S(=O)(=O)N4CCCC4)cc3)o2)cc1C	i
107	COc1cccc(C(=O)Nc2ccc3c(c2)CCCN3S(=O)(=O)c2ccc(C)cc2)c1	i
108	O=C(c1cccc(Cl)c1)N1CCN(C(=O)C2CC2c2ccccc2)CC1 (centres undefined)	i
109	COC(=O)c1ccc(C(=O)Nc2sc3c(c2-c2nc4ccccc4s2)CCN(C)C3)cc1	i
110	COCCN1CCC(CNC(=O)c2ccc(Cl)c(Cl)c2)CC1	i
111	COc1ccc(OCCNC(=O)N2CCN(Cc3ccccc3)CC2)cc1	i
112	C=C(C)Cn1c(NCCOC)nc2c1c(=O)n(C)c(=O)n2C	i
113	COc1ccccc1-n1ncc2c(C(C)C)nnc(SCc3cccnc3)c21	i
114	CC(O)(CNC(=O)c1cc2ccccc2o1)c1cccs1 (centres undefined)	i
115	CCCc1cnc2c(c1SCC(=O)Nc1nc3ccccc3s1)c(=O)n(C)c(=O)n2C	i
116	Cc1cc(NC(=O)Cn2c(=O)n(CC3CCC(C(=O)NC4CCCC4)CC3)c(=O)c3ccccc32)n[nH]1 (centres undefined)	i
117	CCOC(=O)CCn1c(C)c(C)n2c3c(=O)n(C)c(=O)n(C)c3nc12	i
118	COc1ccc(CNC(=O)Cn2nc3c(c2NC(=O)C(C)(C)C)CSC3)cc1	i
119	Cc1cc(=O)[nH]c(SCC(=O)Nc2ncc(Cc3cccc(Cl)c3Cl)s2)n1	i
120	CC1CCN(C(=O)c2cnc3ccc(F)cc3c2S(=O)(=O)c2ccc(Br)cc2)CC1	i
121	Cn1nc(C(=O)NCC(Cc2cccc(F)c2)n2cccc2)ccc1=O (centres undefined)	i
122	O=C(Nc1ccc2c(c1)OCCO2)c1n[nH]nc1Nc1ccccc1Cl	i
123	CCOCC(=O)N1CCC(Oc2ccc(C(F)(F)F)cn2)CC1	i
124	CCn1c(-c2nonc2N)nc2c(C#CC(C)(C)O)nc(CN3CCCC3)cc21	i
125	Cc1nc(C)c(C(=O)Nc2ccc(N3CCCN(C(=O)C4CC4)CC3)cc2)s1	i
126	COc1ccc(NC(=O)c2ccc(Br)o2)cc1N1CCCC1=O	i
127	COC(=O)Cn1c(=O)c2c(nc3n(-c4cccc(OC)c4)c(-c4ccccc4)cn23)n(C)c1=O	i
128	CC1(C)CC[C@]2(C(=O)O)CC[C@]3(C)C(=CCC4[C@@]5(C)C[C@@H](O)[C@H](O)C(C)(C)C5CC[C@]43C)[C@@H]2[C@@H]1O (some centres undefined)	i
129	Cc1cc(OCC(=O)NCCCCCC(=O)O)c2c(C)c(C)c(=O)oc2c1	i
130	Cc1c(-c2noc(-c3cccc(N(C)C)c3)n2)nnn1Cc1ccccc1	i
131	Cc1nc(N2CCOCC2)cc(N2CCN(C(=O)c3cnn(-c4ccccc4)n3)CC2)n1	i
